Source: PubChem BioAssay
ALR inh: blocks human ALR sulfhydryl oxidase activity; P55789; purified ALR, DTT oxidation, H2O2 HRP-luminol luminescence; inhibition, % (test concentration not listed); actives 3.8% (n = 290,000); AID 485317;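 active means mean and each replicate at 75% or more; inconclusive means only one of the two met; inactive means neither met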;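 further: stock transfer was 7.5 nL into about 7.5 µL; 0% = neutral wells and 100% = wells with inactivated enzyme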
Target sequence (P55789 whole entry, looked up): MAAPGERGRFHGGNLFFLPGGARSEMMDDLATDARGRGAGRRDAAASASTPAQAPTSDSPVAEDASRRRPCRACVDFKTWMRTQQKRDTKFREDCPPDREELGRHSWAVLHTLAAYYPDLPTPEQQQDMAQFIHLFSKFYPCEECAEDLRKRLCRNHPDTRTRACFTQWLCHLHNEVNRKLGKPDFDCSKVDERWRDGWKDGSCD
FGF22 binding: shifts melting point of recombinant human FGF22; recombinant FGF22 thermal shift, SYPRO orange fluorescence; percent of sucrose octasulfate shift, DMSO zero; calls only at 9.99 µM; actives 1.5% (n = 340,000);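 active means melting point raised past a set limit in the mean and every replicate; inconclusive means no clear call; three in four hits are not shown here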
Target sequence (Q9HCT0 whole entry, looked up): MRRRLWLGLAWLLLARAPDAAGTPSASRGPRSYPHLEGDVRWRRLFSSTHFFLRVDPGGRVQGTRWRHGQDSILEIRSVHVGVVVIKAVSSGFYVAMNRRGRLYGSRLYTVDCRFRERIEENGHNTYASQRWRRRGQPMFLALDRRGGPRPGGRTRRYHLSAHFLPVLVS
Ecoli rRNA inh: selective bacterial rRNA inhibition in E. coli; E. coli WT GFP vs humanized-ribosome RFP mutants, fluorescence, 24 h; stronger effect = lower value; DMSO median 0, no signal -100; GFP signal change (wild-type ribosome), % (test concentration not listed); actives 1.6% (n = 350,000);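 active means significant combined selectivity score with lowered wild-type GFP, culture density cut under 30%, mutant RFP and density less affected; inactive means any of these conditions unmet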; further: one replicate is shown; some compounds called inactive have numbers as strong as hits
E coli growth: blocks Escherichia coli growth; OD600, 23 h; stronger effect = lower value; actives 0.21% (n = 330,000); OD600 absorbance (test concentration not listed);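 active means OD600 absorbance below the run mean of sample wells minus 3.6 SD, in any replicate, cut at about 0.56 in these data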;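 further: stock transfer was 300 nL into about 60 µL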
AF4-AF9 inh: MLL-AF4/AF9 protein interaction inhibition; AID 651704; inhibition, % at 10 µM; actives 0.47% (n = 350,000); AlphaScreen, biotin-AF4 peptide binding to FLAG-AF9;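 active means every replicate reaching a set inhibition limit, whatever the replicate mean, cut at about 25% in these data; inconclusive means mean inhibition reaches that limit but some replicates miss it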;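 further: 0% = plate neutral control median and 100% = total signal loss; the record names both 10 and 1 µM as test concentration; the first replicate is given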
Target sequence (P42568 whole entry, looked up): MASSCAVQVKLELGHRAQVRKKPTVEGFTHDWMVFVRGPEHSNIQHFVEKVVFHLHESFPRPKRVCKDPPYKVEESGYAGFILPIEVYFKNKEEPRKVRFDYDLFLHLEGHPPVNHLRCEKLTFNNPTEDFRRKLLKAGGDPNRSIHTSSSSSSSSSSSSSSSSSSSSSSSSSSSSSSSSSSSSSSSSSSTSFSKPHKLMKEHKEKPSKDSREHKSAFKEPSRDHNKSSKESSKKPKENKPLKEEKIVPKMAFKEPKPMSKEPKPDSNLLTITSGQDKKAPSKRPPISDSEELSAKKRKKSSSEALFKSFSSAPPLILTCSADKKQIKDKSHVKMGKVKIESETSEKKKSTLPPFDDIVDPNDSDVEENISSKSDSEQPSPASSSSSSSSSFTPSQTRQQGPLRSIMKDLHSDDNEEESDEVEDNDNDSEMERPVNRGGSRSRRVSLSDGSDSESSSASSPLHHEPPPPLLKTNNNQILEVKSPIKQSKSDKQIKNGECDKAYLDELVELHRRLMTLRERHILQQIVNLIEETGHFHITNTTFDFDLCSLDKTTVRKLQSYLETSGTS
Vif A3G: inhibitors of Vif binding to APOBEC3G peptide, primary screen, biochemical, TR-FRET, GST-Vif 1-94, biotin-A3G peptide, dose response retest (AID 1117319) | actives 0.57% (n = 260,000) | inhibition, %; hits with a dose series show IC50 in µM | TR-FRET GST-Vif / biotin-A3G peptide binding; higher % means a stronger effect; test concentration not given here; strong numbers were not always called active;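 active means above the screen mean plus three standard deviations and confirmed in dose response; inconclusive means results disagree or hit not tested in dose response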;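 further: Vif residues 1-94 fused to GST binding biotinylated APOBEC3G peptide 110-148; 0% = full assay without inhibitor and 100% = GST in place of GST-Vif; retest series ran down from 100 µM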
HNF4A DNA FP: change in binding of human HNF4 alpha to DNA. P41235. HNF4a-FITC DNA binding, fluorescence polarization, 1 h. activity change, % at 10 µM. actives 0.3% (n = 360,000). AID 1224865; in the data active means activity change above about 30%, passing the limit was not always enough;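 further: controls were the assay level and a saturating level of protein; the project sought stronger binding though the title names inhibitors; some compounds called inactive have numbers as strong as hits; positive values seem to mean higher polarization but the record does not say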
Ecoli rRNA inh OD600: recorded beside Ecoli rRNA inh, whose call it bears; OD600 change, %; measured here: OD600 growth;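 optical density of the mix in the first replicate; 0 = DMSO median and -100 = no signal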
Ecoli rRNA inh RFP: further read-out of Ecoli rRNA inh, marked with its call; RFP signal change, %; measured here: RFP humanized mutant strains;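 first replicate; 0 = DMSO median and -100 = no signal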
Starred values were filed as active, the others as inactive; i = inactive; ? = inconclusive; . = no result given; & = joins results of further samples. Only part of the results is shown, so the mix of outcomes need not match the whole.

Values run as follows: ALR inh, FGF22 binding, Ecoli rRNA inh, Ecoli rRNA inh OD600, Ecoli rRNA inh RFP, E coli growth, AF4-AF9 inh, Vif A3G, HNF4A DNA FP
- CCOc1ccc(S(=O)(=O)NCCC(=O)OCC(=O)N2CC(=O)Nc3ccccc32)cc1
    -2, i, 9, 2, 3.7, 0.66, 1.4, 0%, 2.8
- Cc1cccc(-c2nnc(-c3ccc4ccccc4c3)o2)c1
    ., i, 1, 21, 11, 0.69, -0.5, -3%, 2.8
- CCCCn1nnnc1NCc1ccc(C)cc1
    2, ., 6, -19, 0.5, 0.66, -1.8, ., -1.8
- Cc1ccc(-c2nnc(Nc3ccc4c(c3)OCO4)c3ccccc23)cc1S(=O)(=O)NCCO
    12, i, -47, -64, -20, 0.68, 5.3, ., 1.5
- CC(C)(C)N=C1C([N+](=O)[O-])=CC=C2C1=NC1(CCCCC1)N2O
    -12, ., ., ., ., 0.71, ., 18%, 3.7
- COc1ccccc1NS(=O)(=O)c1ccc(C(=O)N2CCCCCCC2)cc1
    -26, i, -6, -23, 3.5, 0.66, 2.0, 0%, 0.4
- CC(=O)Nc1ccc(S(=O)(=O)NC(CC(=O)NCCCN2CCOCC2)C(C)C)cc1 (stereo not drawn)
    6, ., ., ., ., 0.79, ., 1%, 1.3
- O=C(c1ccc(F)cc1)N1CC2(C1)[C@@H](c1ccccc1)[C@@H](CO)N2Cc1ccccn1
    ., i, 5, 8, -0.8, ., -1.6, ., .
- CCOC(=O)c1cnc(SCC(=O)Nc2ccc(N3CCOCC3)c(Cl)c2)nc1N
    -14, ., ., ., ., 0.68, ., -3%, -0.3
- CC1(C)CC(=O)C=C(NC2CCCCCCC2)C1
    -10, ., ., ., ., 0.7, ., -6%, -1.2
- CCCOc1ccccc1NC(=O)c1ccc([N+](=O)[O-])cc1
    8, i, 9, 19, 0.6, 0.66, 3.8, 8%, 2.7
- Cc1cccc(CC(=O)NCCS(=O)(=O)N2CCN(c3cccc(Cl)c3)CC2)c1
    -7, i, -2, 2, -0.4, 0.67, -5.3, -2%, -1.9
- C/C(=N\Nc1ccc(Cl)c(C(=O)O)c1)c1ccc(Br)s1
    ., i, -12, -31, -3.0, ., 1.2, 1%, -5.2
- Nc1ncnc2c1ncn2[C@@H]1O[C@H](C(=O)Nc2cc(C(F)(F)F)cc(C(F)(F)F)c2)[C@@H](O)[C@H]1O
    ., i, -50, -79, -11, ., 2.7, ., 2.9
- CNc1oc(/C=C/c2ccccc2)nc1C#N
    0, ., ., ., ., 0.7, ., -15%, 1.2
- COC(=O)C1(C(O)C(=O)c2ccc(C)cc2C)CCCCC1 (stereo not drawn)
    ., ., ., ., ., 0.71, ., -5%, 0.7
- NS(=O)(=O)c1ccc(NC(=O)CSc2n[nH]c(=O)n2Cc2ccccc2)cc1
    -9, i, 7, 11, 3.8, 0.66, -0.8, -5%, -0.9
- COc1ccnc2c1c(=O)n(Cc1cccc(Cl)c1)c(=O)n2C
    -5, i, 14, 8, -4.1, 0.69, 0.4, 3%, 5.3
- Cc1nn(Cc2c(Cl)cccc2Cl)c(C)c1NC(=O)Cn1nc([N+](=O)[O-])c(Cl)c1C
    -2, i, 7, 3, 1.8, 0.71, -1.8, ?, 1.6
- N=C1SCC(=O)N1c1ccccc1Cl
    27, i, 10, 24, 4.9, 0.7, -16, -3%, -1.0
- COC(=O)c1cc(Cl)cc2c(CCO)c[nH]c12
    -4, i, -21, -19, -10, 0.66, -1.7, ., 0.2
- CC(=O)Nc1ccc2c(c1)C(=Nc1cccc(C)c1)c1ccccc1-2
    ., i, 0, -23, -5.2, 0.66, 4.2, -6%, 0.7
- COc1ccc(OC)c(C(=O)NC(CC(N)=O)c2ccc(NCc3ccc(F)c(F)c3)c([N+](=O)[O-])c2)c1 (stereo not drawn)
    -4, i, -20, -7, 9.7, 0.72, 4.9, ., -6.5
- COc1cc2c(cc1OC)C(C)N(C(=O)c1c(C)noc1C)CC2 (stereo not drawn)
    1, i, 2, 0, -1.1, 0.64, 0.2, 0%, 4.3
- C=C1C(=O)C=C[C@]2(C)C[C@@H]3OC(=O)[C@](C)(O)[C@H]3C[C@@H]12
    3, i, -18, 21, 7.6, ., -8.3, -1%, 2.9
- CCCNC(=O)N(C)C[C@H]1Oc2cc(C#Cc3cccc(F)c3)ccc2S(=O)(=O)N([C@H](C)CO)C[C@H]1C
    ., i, -4, -31, 30, ., -2.9, ., .
- Cc1ccc(CNC(=O)c2sccc2-n2cccc2)cc1
    -4, ., ., ., ., 0.67, ., 6%, 1.7
- COc1ccccc1C1CCN(c2ccc([N+](=O)[O-])c(OC)c2)CC1
    -59, i, -15, -8, 5.4, 0.71, 9.0, -3%, 0.5
- CC1=CC(C)(C)N2C(=O)C3(NCCc4c3[nH]c3ccccc43)c3cccc1c32 (stereo not drawn)
    32, i, -22, -22, -1.6, 0.69, 4.0, -3%, 0.8
- COC(=O)N/N=C\c1ccc(OC/C=C/c2ccccc2)cc1
    -21, i, -1, -1, -0.6, ., 0.4, 3%, -0.6
- CO[C@@H]1CN(C)C(=O)c2ccc(NC(=O)NC(C)C)cc2OC[C@H](C)N(CC2CC2)C[C@@H]1C
    ., i, -3, -11, -1.6, ., -9.2, ., .
- Cc1cc(NC(=O)/C=C/C(=O)N(CC(=O)NC2CCCC2)c2ccc(F)cc2)no1
    6, i, 14, 7, -12, 0.67, 0.7, -11%, -1.0
- CCCn1c2ccccc2c2cnn(CC(=O)NC3CCCC(C)C3C)c(=O)c21 (stereo not drawn)
    -1, i, 5, 5, -0.1, 0.72, -6.0, ., -2.9
- COc1ccccc1Oc1c(C)oc2c(CN3CCN(C)CC3)c(O)ccc2c1=O
    -9, ., ., ., ., 0.73, ., 0%, .
- COc1ccc(CCN(C)C(=O)C23CC4CC(CC(Cl)(C4)C2)C3)cc1OC
    -7, i, -8, -13, 1.2, 0.7, 1.3, ., -3.8
- CN(C)C(=O)[C@@H]1[C@@H](CO)[C@@H]2Cn3c(ccc(-c4ccccc4F)c3=O)[C@H]1N2C(=O)c1cccnc1
    ., i, 4, 19, -3.4, ., -1.5, ., .
- Cc1ccc(S(=O)(=O)N2CCCCC2)cc1NC(=O)CNc1ccc(C(F)(F)F)cc1
    2, i, 1, -5, 10, 0.63, -5.6, -8%, 3.6
- Cc1ccc(S(=O)(=O)Nc2ccsc2C#N)cc1
    0, i, 5, 3, -1.1, 0.65, -4.8, 12%, 1.1
- Cc1ccc(C)c(NC(=O)CCc2nnc3ccc(N4CCCCC4)nn23)c1
    -1, i, 3, 4, -0.1, 0.68, -1.0, ., 0.5
- Cc1ccc(-n2c(C)nn(CC3CC3)c2=O)cc1
    -5, i, ., ., ., 0.66, -1.8, ., -1.5

Of the compounds above, 7 have an aryl methoxy group.
Values run as follows: ALR inh, FGF22 binding, Ecoli rRNA inh, Ecoli rRNA inh OD600, Ecoli rRNA inh RFP, E coli growth, AF4-AF9 inh, Vif A3G, HNF4A DNA FP
- COc1ccccc1NS(=O)(=O)c1ccc(C(=O)N2CCCCCCC2)cc1
    -26, i, -6, -23, 3.5, 0.66, 2.0, 0%, 0.4
- COc1ccnc2c1c(=O)n(Cc1cccc(Cl)c1)c(=O)n2C
    -5, i, 14, 8, -4.1, 0.69, 0.4, 3%, 5.3
- COc1ccc(OC)c(C(=O)NC(CC(N)=O)c2ccc(NCc3ccc(F)c(F)c3)c([N+](=O)[O-])c2)c1 (stereo not drawn)
    -4, i, -20, -7, 9.7, 0.72, 4.9, ., -6.5
- COc1cc2c(cc1OC)C(C)N(C(=O)c1c(C)noc1C)CC2 (stereo not drawn)
    1, i, 2, 0, -1.1, 0.64, 0.2, 0%, 4.3
- COc1ccccc1C1CCN(c2ccc([N+](=O)[O-])c(OC)c2)CC1
    -59, i, -15, -8, 5.4, 0.71, 9.0, -3%, 0.5
- COc1ccccc1Oc1c(C)oc2c(CN3CCN(C)CC3)c(O)ccc2c1=O
    -9, ., ., ., ., 0.73, ., 0%, .
- COc1ccc(CCN(C)C(=O)C23CC4CC(CC(Cl)(C4)C2)C3)cc1OC
    -7, i, -8, -13, 1.2, 0.7, 1.3, ., -3.8

Next section:
Values run as follows: ALR inh, FGF22 binding, Ecoli rRNA inh, Ecoli rRNA inh OD600, Ecoli rRNA inh RFP, E coli growth, AF4-AF9 inh, Vif A3G, HNF4A DNA FP
- Cc1ccc(S(=O)(=O)N2CCN(C(=O)COC(=O)Cc3c(F)cccc3Cl)CC2)c(C)c1
    ., i, -12, -15, 4.1, 0.61, -3.5, ., 2.8
- COCOCCn1cc(CN2CCS(=O)(=O)N(Cc3ccc(-c4ccncc4)cc3)C(C)C2=O)nn1 (stereo not drawn)
    ., i, -5, 5, -3.5, ., -0.4, ., 1.2
- COc1cccc(C(=O)N2CCCC(c3nc(-c4cccs4)no3)C2)c1 (stereo not drawn)
    0, ., ., ., ., 0.75, ., 25%, -0.2
- O=C(NNC(=O)c1csc(-c2cnccc2C(F)(F)F)n1)c1ccc(C(F)(F)F)cc1
    -3, i, 0, 0, 4.4, 0.67, -9.6, 20%, 4.8
- CCOc1ccc(NC(=O)CSc2nc3[nH]ncc3c(=O)[nH]2)cc1
    -4, ., 9, 11, 0.1, 0.68, -0.5, 22%, 0.6
- Cc1ccc(-c2noc(CN3CCN(c4ccccc4F)CC3)n2)cc1
    -5, i, -10, -21, -4.9, 0.7, -6.3, 4%, 0.3
- OC(COCc1ccc(Cl)cc1)CN1CCCCC1 (stereo not drawn)
    1, i, 3, 6, -0.9, 0.7, 1.7, 2%, 1.7
- COc1ccccc1OCC(=O)NCC1CCCN(C(=O)c2ccccc2C(C)=O)C1 (stereo not drawn)
    -2, i, 6, 8, -1.2, 0.65, -0.7, 0%, -0.5
- CCCNC(=O)N(C)C[C@H]1Oc2ncc(Br)cc2C(=O)N([C@H](C)CO)C[C@H]1C
    ., i, ., ., ., ., -1.9&-4.3, -3%, -1.2
- Cn1c(CCN2CCN(c3ccccn3)CC2)nc2cc(NS(=O)(=O)c3ccc(F)cc3)ccc21
    ., i, -29*, -17*, 3.5*, ., 1.3, 6%, -0.7
- CCOc1ccc(-c2[nH]nc3c2C(c2ccc4c(c2)OCO4)C(C#N)=C(N)O3)cc1OC (stereo not drawn)
    1, ., ., ., ., ., ., -7%&-2%, 1.6

Three compounds out of the list, ordered by number of heavy atoms, lowest first:
Values run as follows: ALR inh, FGF22 binding, Ecoli rRNA inh, Ecoli rRNA inh OD600, Ecoli rRNA inh RFP, E coli growth, AF4-AF9 inh, Vif A3G, HNF4A DNA FP
- COc1cccc(C(=O)N2CCCC(c3nc(-c4cccs4)no3)C2)c1 (stereo not drawn)
    0, ., ., ., ., 0.75, ., 25%, -0.2
- O=C(NNC(=O)c1csc(-c2cnccc2C(F)(F)F)n1)c1ccc(C(F)(F)F)cc1
    -3, i, 0, 0, 4.4, 0.67, -9.6, 20%, 4.8
- Cn1c(CCN2CCN(c3ccccn3)CC2)nc2cc(NS(=O)(=O)c3ccc(F)cc3)ccc21
    ., i, -29*, -17*, 3.5*, ., 1.3, 6%, -0.7
